# Screening results (PubChem BioAssay)
# DUX4 inh = blocks DUX4-driven transcriptional activation. 293T-iDUX4 ZSCAN4-Gaussia luciferase reporter, 24 h; active compounds read low. activity change, negative = inhibition, % (concentration not given with the values). 37,000 tested, 0.8% active. AID 1224904;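 active = -10% or lower and over 25 points stronger than a control reporter; inconclusive = -10% or lower with a smaller gap; inactive = above -10%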;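 also: 0% = median of neutral control wells and -100% = median of positive control wells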
# DUX4 inh difference = also measured in DUX4 inh; calls as there; Gaussia minus Italica difference, %; measured here: selective DUX4 reporter inhibition;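 worked out from the two reporters; negative = selective loss of the DUX4 reporter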
# DUX4 inh control = also measured in DUX4 inh; calls as there; activity change, negative = inhibition, %; measured here: Italica tet-on control reporter;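 0 = neutral control and -100 = positive control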
# Starred values were filed as active, the others as inactive; ? = inconclusive; · = not tested or not shown. A portion of the library, so the mix of outcomes need not match the whole.
# The opening 7 records (preview)
SMILES,DUX4 inh,DUX4 inh difference,DUX4 inh control
Cc1noc(C)c1NC(=O)N(C)C[C@@H]1Oc2cc(C#CCN(C)C)ccc2S(=O)(=O)N([C@@H](C)CO)C[C@H]1C,-3,0,-3.2
O=C(c1ccncc1)N1CC2(C1)[C@H](c1ccccc1)[C@H](CO)N2CC1CC1,12,15,-3.6
O=C(C[C@@H]1CC[C@H]2[C@@H](COC[C@H](O)CN2C(=O)Nc2cccc(Cl)c2)O1)NCC1CCCCC1,1,2,-0.6
O=C(C[C@@H]1CC[C@@H]2[C@H](COC[C@H](O)CN2C(=O)c2ccncc2)O1)NCc1cc(F)cc(F)c1,7,-3,9.9
CN1C(=O)c2cc(NS(=O)(=O)c3ccccc3Cl)ccc2OC[C@H]2O[C@@H](CC(=O)Nc3cc(F)ccc3F)CC[C@@H]21,0,-3,2.3
CCCN1C[C@@H](C)[C@@H](OC)CN(C)C(=O)c2cc(NC(=O)CC)ccc2OC[C@H]1C,-4,-2,-1.6
COc1ccc2c3c([nH]c2c1)[C@H](CO)N(C(=O)c1ccncc1)CC31CN(C(=O)c2ccncc2)C1,10,7,3.3

# The list itself, from the first entry:
SMILES,DUX4 inh,DUX4 inh difference,DUX4 inh control
Cc1noc(C)c1NC(=O)N(C)C[C@@H]1Oc2cc(C#CCN(C)C)ccc2S(=O)(=O)N([C@@H](C)CO)C[C@H]1C,-3,0,-3.2
O=C(c1ccncc1)N1CC2(C1)[C@H](c1ccccc1)[C@H](CO)N2CC1CC1,12,15,-3.6
O=C(C[C@@H]1CC[C@H]2[C@@H](COC[C@H](O)CN2C(=O)Nc2cccc(Cl)c2)O1)NCC1CCCCC1,1,2,-0.6
O=C(C[C@@H]1CC[C@@H]2[C@H](COC[C@H](O)CN2C(=O)c2ccncc2)O1)NCc1cc(F)cc(F)c1,7,-3,9.9
CN1C(=O)c2cc(NS(=O)(=O)c3ccccc3Cl)ccc2OC[C@H]2O[C@@H](CC(=O)Nc3cc(F)ccc3F)CC[C@@H]21,0,-3,2.3
CCCN1C[C@@H](C)[C@@H](OC)CN(C)C(=O)c2cc(NC(=O)CC)ccc2OC[C@H]1C,-4,-2,-1.6
COc1ccc2c3c([nH]c2c1)[C@H](CO)N(C(=O)c1ccncc1)CC31CN(C(=O)c2ccncc2)C1,10,7,3.3
C[C@@H](NC(=O)[C@@H]1[C@@H](CO)[C@@H]2Cn3c(ccc(C4=CCCC4)c3=O)[C@@H]2N1C)c1ccccc1,13,12,1.0
Cc1ccccc1-c1ccc2c(c1)O[C@@H](CN(C)C(=O)Nc1ccc(C(F)(F)F)cc1)[C@H](C)CN([C@H](C)CO)S2(=O)=O,0,2,-1.3
CN1c2ccc(Br)cc2[C@@H]2[C@@H](CCN2S(=O)(=O)c2ccc(F)cc2)[C@@H]1CO,-4,-3,-0.8
COc1ccc(S(=O)(=O)N(C)C[C@@H]2OCc3cnnn3CCCC(=O)N([C@@H](C)CO)C[C@@H]2C)cc1,-1,2,-3.1
C/C=C/c1ccc([C@@H]2[C@H](CO)N[C@H]2CNS(=O)(=O)c2ccccc2)cc1,-3,0,-3.1
COc1ccccc1-c1ccc2c(c1)[C@@H]1[C@@H](CCN1C(=O)C1CCOCC1)[C@@H](CO)N2,7,4,3.1
C/C=C/c1ccc2c(c1)O[C@@H](CN(C)C(=O)Cc1cccnc1)[C@H](C)CN([C@@H](C)CO)S2(=O)=O,0,-1,1.0
O=C(C[C@H]1C[C@H]2c3cc(NC(=O)Nc4ccccc4F)ccc3O[C@H]2[C@@H](CO)O1)NCc1ccc(Oc2ccccc2)cc1,1,0,0.4
O=C(C[C@@H]1CC[C@H](NC(=O)C2CC2)[C@@H](CO)O1)Nc1ccccc1,-1,-3,1.9
O=C(NCC1CCCCC1)[C@@H]1[C@@H](CO)[C@@H]2Cn3c(cccc3=O)[C@@H]2N1Cc1ccccn1,-2,-4,2.2
C[C@@H]1CN([C@H](C)CO)C(=O)c2cccc(NS(=O)(=O)c3ccc(F)cc3)c2O[C@@H]1CN(C)C(=O)NC1CCCCC1,0,-5,4.2
O=C(c1cccnc1)N1C[C@@H]2[C@H](c3ccccc31)[C@@H](CO)N2C(=O)C1CCCC1,-1,0,-0.6
COc1cccc(-c2ccc([C@@H]3[C@@H](CO)N4CCCCN(C(=O)NC(C)C)C[C@H]34)cc2)c1,5,5,0.3
COc1ccc([C@@H]2CC=CC[C@H](C)Oc3ccccc3C(=O)N(C)[C@@H](C)C(=O)N2)c(OC)c1 (mixture of isomers),-2,-3,1.5
CO[C@H]1CN(C)C(=O)c2ccc(NC(=O)C3CCCC3)cc2OC[C@@H](C)N(CCC(F)(F)F)C[C@H]1C,-4,-8,3.9
C[C@@H]1CN([C@@H](C)CO)C(=O)c2cccc(NS(=O)(=O)c3cn(C)cn3)c2O[C@H]1CN(C)C(=O)Nc1ccc(F)cc1,-1,-3,1.2
C[C@H](CO)N1C[C@H](C)[C@H](CN(C)Cc2cccc(O)c2)OCc2cnnn2CCCC1=O,-1,-3,2.3
O=C(C[C@@H]1CC[C@H]2[C@@H](COC[C@@H](O)CN2S(=O)(=O)c2ccccc2Cl)O1)NCc1ccccc1Cl,?,·,·
C/C=C/c1ccc([C@H]2[C@@H](CNC(=O)CC3CC3)N(C(=O)CC)[C@H]2CO)cc1,0,2,-2.3
O=C(C[C@H]1C[C@@H]2c3cc(NS(=O)(=O)c4ccccc4)ccc3O[C@@H]2[C@H](CO)O1)N1CCOCC1,6,-2,8.8
COc1ccc2c3c([nH]c2c1)[C@@H](CO)N(Cc1ccccc1)CC31CCN(S(=O)(=O)c2ccc(C)cc2)CC1,?,·,·
COc1ccccc1-c1ccc([C@@H]2[C@H](C#N)N(C(=O)CN(C)C)[C@H]2CO)cc1,0,-3,3.2
CNC(=O)C[C@H]1CC[C@H]2[C@@H](COC[C@@H](O)CN2Cc2ccc(C(F)(F)F)cc2)O1,-3,-5,1.6
CCC(=O)N1CC(=O)N2[C@H](C1)[C@H](c1ccc(C#Cc3cccc(F)c3)cc1)[C@@H]2CO,?,·,·
CCC(=O)Nc1ccc2c(c1)C(=O)N(C)C[C@@H](OC)[C@@H](C)CN(C(=O)c1cnccn1)[C@@H](C)CO2,2,7,-5.1
O=C(c1ccccc1)N1CC(=O)N2[C@H](CO)[C@@H](c3ccc(/C=C/c4ccccc4)cc3)[C@H]2C1,-7,-10,2.9
COc1cccc(NC(=O)N(C)C[C@@H]2OCc3ccccc3-c3ccccc3C(=O)N([C@@H](C)CO)C[C@@H]2C)c1,14,7,7.1
Cc1ccccc1S(=O)(=O)N1CC[C@@H]2[C@H]1c1cc(-c3ccccc3)ccc1N[C@@H]2CO,20,18,2.0
O=C(NCc1ccccc1)[C@H]1N[C@H]2c3cccc(=O)n3C[C@H]2[C@@H]1CO,1,5,-4.7
CO[C@@H]1CN(C)C(=O)c2cc(NC(=O)NC(C)C)ccc2OC[C@H](C)N(CCC(F)(F)F)C[C@H]1C,4,3,0.9
O=C(O)C[C@@H]1CC[C@H]2[C@@H](COC[C@H](O)CN2S(=O)(=O)c2ccc(Oc3ccccc3)cc2)O1,4,1,3.0
O=C(C[C@H]1C[C@@H]2c3cc(NC(=O)c4cccnc4)ccc3O[C@@H]2[C@@H](CO)O1)NCCc1ccccc1,3,4,-1.0
Cc1noc(C)c1NC(=O)N(C)C[C@@H]1OCCCC[C@@H](C)Oc2ccc(NC(=O)Nc3cccc4ccccc34)cc2C(=O)N([C@@H](C)CO)C[C@H]1C,1,-5,6.9
CCNC(=O)[C@@H]1[C@@H](CO)[C@@H]2Cn3c(ccc(C4=CCCC4)c3=O)[C@@H]2N1C(=O)CC1CC1,1,-2,2.6
CC=Cc1ccc2n(c1=O)C[C@@H]1N[C@H]2[C@H](C(=O)NC2CCCC2)[C@H]1CO (mixture of isomers),6,3,3.0
COc1ccc(-c2ccc3c(c2)[C@H]2[C@H](CCN2C(=O)c2cccc(F)c2)[C@H](CO)N3)cc1,?,·,·
C[C@H](CO)N1C[C@H](C)[C@@H](CN(C)Cc2ccc(F)cc2)OCc2ccccc2-c2c(n(C)c3ccccc23)C1=O,?,·,·
CN(C)CC(=O)N1[C@@H](C#N)[C@@H](c2ccccc2-c2cccc(C(=O)N(C)C)c2)[C@@H]1CO,10,-1,11
C[C@H]1CN([C@@H](C)CO)C(=O)c2c(c3ccccc3n2C)-c2ccccc2CO[C@@H]1CN(C)C(=O)Nc1ccnc(N2CCOCC2)c1,1,-1,2.7
Cc1ccc(S(=O)(=O)NCC[C@H]2CC[C@@H](NS(=O)(=O)c3ccccc3Cl)[C@@H](CO)O2)cc1,-4,1,-5.4
COc1ccc2c3c([nH]c2c1)[C@H](CO)N(C(=O)c1ccc(F)cc1)CC31CN(C)C1,7,1,6.3
O=C(C[C@H]1CC[C@@H]2[C@H](COC[C@H](O)CN2CCc2ccccc2)O1)NCc1ccc(Oc2ccccc2)cc1,?,·,·
CC(C)NC(=O)N1[C@@H](CO)[C@@H](c2ccccc2)C12CN(C(=O)CN(C)C)C2,5,6,-0.9
CCCC#Cc1ccc([C@H]2[C@@H](C#N)N(S(=O)(=O)c3cccc(F)c3)[C@H]2CO)cc1,1,-5,6.3
COc1ccccc1NC(=O)N1CC[C@@H]2[C@@H](CO)N(C)c3ccc(-c4cccc(F)c4)cc3[C@@H]21,-2,-2,0.0
CN1c2ccc(C3=CCCCC3)cc2[C@H]2[C@H](CCN2C(=O)C2CCCCC2)[C@@H]1CO,13,12,0.9
C[C@H]1CN([C@@H](C)CO)C(=O)c2cc(NS(=O)(=O)c3cn(C)cn3)ccc2O[C@@H]1CN(C)Cc1ccc(-c2ccccc2)cc1,4,1,3.1
COc1ccc(C#Cc2ccc([C@@H]3[C@@H](CO)N4C(=O)CN(C(=O)c5ccncc5)C[C@@H]34)cc2)cc1,?,·,·
COc1ccccc1CNC(=O)C[C@@H]1CC[C@@H]2[C@@H](COc3ccc(NS(=O)(=O)c4ccc(C)cc4)cc3C(=O)N2C)O1,-4,-4,-0.7
COCC#Cc1ccc2c(c1)O[C@H](CN(C)C(=O)c1ccccc1)[C@H](C)CN([C@H](C)CO)S2(=O)=O,1,-3,3.8
C[C@H](CO)N1C[C@H](C)[C@H](CN(C)S(=O)(=O)c2cn(C)cn2)OCCCC[C@H](C)Oc2ccc(NC(=O)Nc3ccc(C(F)(F)F)cc3)cc2C1=O,3,0,2.6
CC=Cc1ccc2n(c1=O)C[C@@H]1[C@@H](CO)[C@H](C(=O)NCc3ccncc3)N(Cc3cncnc3)[C@H]21 (mixture of isomers),1,2,-1.1
C[C@H]1CN([C@@H](C)CO)C(=O)c2c(c3ccccc3n2C)-c2ccccc2CO[C@H]1CN(C)S(=O)(=O)c1ccccc1F,?,·,·
# Later entries:
SMILES,DUX4 inh,DUX4 inh difference,DUX4 inh control
C[C@H]1CN([C@@H](C)CO)C(=O)Cc2cc(N(C)C)ccc2O[C@H]1CN(C)CC1CC1,4,3,1.4
O=C(C[C@@H]1CC[C@H]2[C@@H](COC[C@@H](O)CN2Cc2nccs2)O1)NCc1ccc(-c2ccccc2)cc1,-5,7,-12
O=C(C[C@@H]1CC[C@@H]2[C@H](COC[C@@H](O)CN2C(=O)Nc2ccc(F)cc2)O1)NCCc1ccncc1,5,3,2.1
COCC(=O)Nc1ccc2c(c1)C(=O)N(C)C[C@H](OC)[C@H](C)CN(C(=O)c1ccncc1)[C@H](C)CO2,5,-3,8.0
C[C@H](CO)N1C[C@H](C)[C@H](CN(C)Cc2ccc3c(c2)OCO3)OCCCC[C@H](C)Oc2ccc(NC(=O)CCC(F)(F)F)cc2C1=O,4,5,-0.6
COc1ccc(-c2ccc(C3[C@H]4CNC[C@@H]3N4Cc3cncnc3)cc2)cc1 (stereo partly drawn),26,10,16
N#Cc1ccc(-c2ccc([C@@H]3[C@H]4CNCC(=O)N4[C@H]3CO)cc2)cc1,0,-8,8.7
O=C1N[C@H](c2ccccc2)COCc2cn(nn2)CC[C@@H]1Cc1ccc(C(F)(F)F)cc1,-1,3,-3.9
C/C=C/c1ccc([C@@H]2[C@@H](CN(CC)C(C)=O)N(C(=O)C3CCC3)[C@H]2CO)cc1,6,2,3.9
O=C(c1ccccc1F)N1CC(=O)N2[C@H](C1)[C@H](c1ccc(-c3ccc(F)cc3)cc1)[C@@H]2CO,-4,2,-6.3
COc1ccccc1C#Cc1ccc([C@H]2[C@H](C#N)N(C(=O)C3CCC3)[C@H]2CO)cc1,-1,0,-0.5
C[C@@H]1CN([C@H](C)CO)C(=O)CCCn2cc(nn2)CO[C@@H]1CN(C)C(=O)Nc1ccccc1C(F)(F)F,-2,-5,3.3
C[C@H](CO)N1C[C@H](C)[C@H](CN(C)C(=O)Nc2ccnc(N3CCOCC3)c2)OCc2ccccc2-c2ccccc2C1=O,6,-10,16
CC(=O)N(C)C[C@H]1OCc2ccccc2-c2ccccc2C(=O)N([C@H](C)CO)C[C@H]1C,18,22,-3.9
CN1CCN(C(=O)C[C@@H]2CC[C@H]3[C@@H](COC[C@@H](O)CN3CC3CCCCC3)O2)CC1,2,3,-0.9
CCCC(=O)N1CC2(CCN(C(=O)CC3CC3)CC2)c2c(n(C)c3cc(OC)ccc23)[C@H]1CO,13,8,5.4
CCCC(=O)Nc1ccc2c(c1)C(=O)N(C)[C@H]1CC[C@@H](CC(=O)NC3CCCC3)O[C@@H]1CO2,-4,-3,-1.2

# Three structures from above, ordered by length of the SMILES, rising.
SMILES,DUX4 inh,DUX4 inh difference,DUX4 inh control
O=C1N[C@H](c2ccccc2)COCc2cn(nn2)CC[C@@H]1Cc1ccc(C(F)(F)F)cc1,-1,3,-3.9
C/C=C/c1ccc([C@@H]2[C@@H](CN(CC)C(C)=O)N(C(=O)C3CCC3)[C@H]2CO)cc1,6,2,3.9
O=C(C[C@@H]1CC[C@H]2[C@@H](COC[C@@H](O)CN2Cc2nccs2)O1)NCc1ccc(-c2ccccc2)cc1,-5,7,-12
